Bioassay records: PubChem BioAssay, Southern Research Institute
Mtb H37Rv: Mycobacterium tuberculosis H37Rv growth inhibition, putative kinase inhibitor library, confirmatory dose response (AID 2842); 24,000 tested, 5.2% active; one-dose inhibition, % at 10 µg/mL; IC90 in µg/mL for titrated hits; M. tuberculosis H37Rv growth inhibition; higher % means a stronger effect; some inactives read as strong as hits;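 active means confirmed in a dose series; about a fifth of its hits are not listed in these tables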;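 further: bacteria incubated one week before Alamar blue readout; 0% = bacteria only wells and 100% = bacteria with high antibiotic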
The depositor's hits bear a star.

canonical_smiles,Mtb H37Rv
CC1CN(c2ncnc3c2cnn3-c2ccc(Cl)c(Cl)c2)CC(C)O1 (stereo not drawn),1%
COc1ccc(C2CC(c3ccc(Br)cc3)=NN2C(=O)CSc2nnc3[nH]c(=O)cc(C)n23)cc1 (stereo not drawn),7%
Cc1ccc(Nc2nc(N3CCN(c4ccc(F)cc4)CC3)nc3nccnc23)cc1C,23µg/mL*
N#Cc1c(/N=C/c2ccc(O)cc2O)sc2c1C1CCN2CC1,4%
CCc1nc(-n2nc(C)cc2N)c2c3c(sc2n1)CCC3,21%
Cc1ccc2nc(Nc3ccc(Cl)cc3)c(C=O)c(=O)n2c1,11%
COC(=O)C(C)Sc1nc(N)c(NC(=O)c2ccc(OC)c(OC)c2)c(=O)[nH]1 (stereo not drawn),6%
COc1ccc(-c2nc(C(N)=O)c3[nH]c(=O)n(-c4ccc(F)cc4)c3n2)cc1OC,-2%
CC(=O)N1CCc2c(sc(NC(=O)c3cc(Cl)cc(Cl)c3)c2C(N)=O)C1,17%
O=C(CSc1ncnc2c1oc1ccccc12)Nc1ccccc1C(F)(F)F,99%
O=C(Nc1sc2c(c1-c1nc3ccccc3s1)CCCC2)c1ccco1,11%
Cc1ccc(C)c(NC(=O)CSc2ccc3nnc(-c4ccc(F)cc4)n3n2)c1,-7%
COc1ccc(Nc2cnc(=O)nc3ccccc23)cc1,62%
Cc1nc2sc(C(c3ccc(Br)cc3)N3CCC(O)CC3)c(O)n2n1 (stereo not drawn),-8%
CC(C)(C)c1ccc2c(c1)OC(NC(=O)Nc1ccc(I)cn1)(C(Cl)(Cl)Cl)O2 (stereo not drawn),89%
Cc1cccc(C(=O)Nc2nnc(-c3ccc(C)cc3C)o2)c1,9.1µg/mL*
Cc1ccc(Nc2ncnc(N)c2[N+](=O)[O-])c(C)c1,1%
Cc1ccc(NC(=O)CSC2=C(C#N)C(c3ccc4c(c3)OCO4)CC(=O)N2)cc1C (stereo not drawn),36%
Cc1[nH]c2ccc(N3CCOCC3)cc2c(=O)c1CN1CCN(c2ccccc2)CC1,-2%
COc1ccc(C(=O)Nc2c(N)nc(SCC(=O)N3CCCCCC3)[nH]c2=O)cc1,-3%
CCOC(=O)c1[nH]c2ccccc2c1NC(=S)Nc1cccc(C(F)(F)F)c1,70%
CCn1c(SCC(=O)Nc2ccc3c(c2)OCCO3)nc2c(c1=O)SC(C)C2 (stereo not drawn),-6%
COc1cccc(Cn2cc(C(=O)c3ccc(C)c(C)c3)c(=O)c3cc(OC)c(OC)cc32)c1,-1%
Cc1sc2ncnc(NCc3ccc4c(c3)OCO4)c2c1C,-2%
CNC(=O)c1ccsc1NC(=O)c1ccc(S(=O)(=O)N(C)C2CCCCC2)cc1,12%

Looked up one by one from the list above (five):
canonical_smiles,Mtb H37Rv
CCOC(=O)c1[nH]c2ccccc2c1NC(=S)Nc1cccc(C(F)(F)F)c1,70%
Cc1ccc(NC(=O)CSC2=C(C#N)C(c3ccc4c(c3)OCO4)CC(=O)N2)cc1C (stereo not drawn),36%
CCn1c(SCC(=O)Nc2ccc3c(c2)OCCO3)nc2c(c1=O)SC(C)C2 (stereo not drawn),-6%
CC(C)(C)c1ccc2c(c1)OC(NC(=O)Nc1ccc(I)cn1)(C(Cl)(Cl)Cl)O2 (stereo not drawn),89%
CNC(=O)c1ccsc1NC(=O)c1ccc(S(=O)(=O)N(C)C2CCCCC2)cc1,12%

(further entries)
canonical_smiles,Mtb H37Rv
COc1cc(-c2nnc(NC(=O)Cc3cccc4ccccc34)o2)cc(OC)c1OC,1%
Cc1cc(N2C(=O)c3oc4cc(C)c(C)cc4c(=O)c3C2c2cccnc2)no1 (stereo not drawn),0%
Cc1c(C)n2c(SCc3cccc4ccccc34)nnc2[nH]c1=O,9%
Cc1ccc(S(=O)(=O)NCc2c(-c3ccccc3)c3cc(Cl)ccc3[nH]c2=O)cc1,-2%
O=C(Cn1ccn(-c2ccc3c(c2)OCO3)c(=O)c1=O)NCc1ccccc1Cl,-1%
CCOc1ccc2c(c1)c1nnc(-c3ccc(OC)cc3)c-1cn2Cc1ccc(OC)cc1,20%
Cc1cc(C)cc(C(=O)NCCc2cc3c(C)ccc(C)c3[nH]c2=O)c1,5%
O=C(CSc1nnc(NC(=O)c2cccs2)s1)Nc1nccs1,7%
COc1cccc(N2C(=O)CC(Sc3ccccc3C(=O)O)C2=O)c1 (stereo not drawn),-18%
CC(Oc1c(-c2ccc(Cl)cc2)oc2ccccc2c1=O)C(=O)O (stereo not drawn),1%
CC(=O)c1cccc(Nc2ncnc3ccc(C)cc23)c1,12%
O=C(Oc1coc(CSc2nnc(NC(=O)C3CC3)s2)cc1=O)c1ccc(Br)o1,-3%
O=C(COc1ccc(Cl)cc1)NCCSc1ncc(-c2ccc(F)cc2)[nH]1,10µg/mL*
CC(=O)Nc1cccc(NC(=O)Cn2cnc3c(cnn3-c3ccc(C)cc3)c2=O)c1,-1%
Cc1ccc(Cn2c(SCC(O)CO)nc3c2c(=O)[nH]c(=O)n3C)cc1 (stereo not drawn),11%
CC(C)(C)C(=O)Nc1nnc(C2=COCCO2)o1,49µg/mL*
O=C(CSc1ccc2nnc(-c3cccc(F)c3)n2n1)Nc1ccc(Cl)cc1,-2%
COCCSc1nc2c(c(=O)[nH]c(=O)n2C)n1Cc1ccccc1Cl,7%
Cc1cccc(NS(=O)(=O)c2cc(C)c3[nH]c(=O)cc(C)c3c2)c1,4%
COc1ccc(Cl)cc1-n1nnc(S(=O)(=O)c2ccc(C)cc2)c1C,-1%
COc1cccc(C(=O)Nc2nnc(-c3ccc(C)cc3C)o2)c1,21µg/mL*
COc1ccc(C)cc1NS(=O)(=O)c1c[nH]c(=O)[nH]c1=O,2%
N#CC1=C(SCC(=O)NCc2ccccc2)NC2=C(C(=O)CCC2)C1c1ccco1 (stereo not drawn),9%
CNC(=O)Cn1cc(OC)c(=O)cc1CSc1nnc(C)s1,7%
Cc1ccc2cc(CCNC(=O)C3CCCC3)c(=O)[nH]c2c1,2%

canonical_smiles,Mtb H37Rv
Cn1c(=O)[nH]c(=O)c2[nH]c(CN(Cc3ccccc3)Cc3ccccc3)nc21,2%
O=c1/c(=C\c2ccc(Cl)c(Cl)c2)sc2nc(-c3cccnc3)nn12,-4%
CN1CCc2c(sc(NC(=O)COc3ccc(Cl)cc3)c2C(N)=O)C1,3%
Cc1ccc(NC(=O)Nc2nc3c(s2)CCCC3)cc1,-11%
O=C(O)CSc1nnc(C2COc3ccccc3O2)n1-c1ccccc1 (stereo not drawn),-42%
C=CCNC(=O)c1ccc(COc2ccccc2Cl)o1,-4%
O=C(Nc1ccc(-c2csc(NC(=O)c3ccccc3)n2)cc1)c1ccccc1,1%
O=C(CSc1ccc(S(=O)(=O)C(F)(F)F)cc1[N+](=O)[O-])NC1CCS(=O)(=O)C1 (stereo not drawn),2%
CCOC(=O)c1nn(-c2ccc(C)cc2)c(=O)c2c(NC(=O)c3cc(Cl)ccc3[N+](=O)[O-])scc12,-2%
COc1cc(OC)cc(/C(O)=C(\C#N)c2nc3ccccc3[nH]2)c1,3%
O=C(COc1ccccc1)Nc1nnc(-c2ccc(Cl)cc2Cl)s1,12%
COc1cc(OC)cc(C(=O)NCCc2cc3c(C)ccc(C)c3[nH]c2=O)c1,10%
O=C(Sc1n[nH]c(=O)[nH]c1=O)c1ccccc1,-7%
CC(=O)Nc1ccc(NC(=O)Cc2csc(NS(=O)(=O)c3ccccc3)n2)cc1,-13%
COC(=O)C1CCN(C(c2cccs2)c2sc3ncnn3c2O)CC1 (stereo not drawn),3%
CCSc1nc2c(c(=O)[nH]c(=O)n2C)n1Cc1ccc(C)cc1,16%
CCOC(=O)c1nn(-c2ccc(C)cc2)c(=O)c2c(NC(=O)c3ccc(Cl)cc3Cl)scc12,-3%
Cc1ccc(N2C(=O)CCC2=O)cc1C,1%
CCN(CC)S(=O)(=O)c1ccc(C(=O)Oc2cc(C)[nH]c(=O)c2[N+](=O)[O-])cc1,-15%
CCC(=O)Nc1c(-c2ccccc2)c2cc(Br)ccc2[nH]c1=O,4%
CCOC(=O)c1nn(-c2ccc(OC)cc2)c(=O)c2c(NC(=O)c3ccc(-c4ccccc4)cc3)scc12,1%
COc1ccccc1NC(=O)c1oc2ccccc2c1NC(=O)c1cccc(Cl)c1,-1%
CS(=O)(=O)c1ccc(-c2nnc(NC(=O)c3ccc(F)cc3)o2)cc1,72%
Cc1ccc(C)c(-c2nnc(NC(=O)CCS(=O)(=O)c3ccccc3)o2)c1,-7%
Cn1cc(S(=O)(=O)CC(=O)Nc2nc3ccccc3s2)c2ccccc21,1%

canonical_smiles,Mtb H37Rv
O=C(Nc1nnc(-c2ccccc2)o1)C1CCN(S(=O)(=O)c2ccc(F)cc2)CC1,10%
O=C(COC(=O)c1cc(=O)[nH]c2ccccc12)c1ccc(Cl)cc1,-6%
Cc1cc(Cl)cc2sc(N(CCCn3ccnc3)C(=O)c3cccs3)nc12,1.1µg/mL*
O=C(COc1ccc(Cl)cc1)N(CCCn1ccnc1)c1nc2c(F)cccc2s1,-5%
COc1cccc(N2CC(NC(=O)N3CCN(Cc4ccccc4)CC3)CC2=O)c1 (stereo not drawn),0%
Cc1c(C)n(Cc2ccco2)c2ncnc(NCCCC(=O)O)c12,-12%
O=C(OCn1nnc2ccccc2c1=O)c1ccccc1,1.4µg/mL*
O=C(NCc1ccc2[nH]c3c(c2c1)CCCC3)Nc1ccccc1,63%
Cn1c(Cn2c(=O)sc3ccccc32)nnc1SCC(=O)NCc1ccc2c(c1)OCO2,0%
CCOC(=O)c1nn(-c2ccccc2)c(=O)c2c(NC(=O)c3cccc(OC)c3OC)scc12,-6%
O=C(O)C1CCN(c2ncnc3ccccc23)CC1,-11%
O=C(CCN1C(=O)c2cccc([N+](=O)[O-])c2C1=O)Nc1ccccc1F,-21%
Cc1ccccc1C1C2=C(COC2=O)Nc2c1c(=O)[nH]c(=O)n2Cc1ccccc1 (stereo not drawn),5%
Cc1nc2sc(C(c3cccc(F)c3)N3CCN(CCO)CC3)c(O)n2n1 (stereo not drawn),0%
O=c1[nH]cc(S(=O)(=O)N2CCc3ccccc3C2)c(=O)[nH]1,-12%
COC(=O)C1CCN(C(c2ccc(F)cc2)c2sc3ncnn3c2O)CC1 (stereo not drawn),1%
CCOc1ccc(NC(=O)c2cnc3n(c2=O)CCS3)cc1,-4%
Cc1ccccc1N1C(=O)CC(Sc2ncccc2C(=O)O)C1=O (stereo not drawn),-14%
CCOc1ccc(S(=O)(=O)c2cn(Cc3ccccc3Cl)c3ccc(F)cc3c2=O)cc1,-6%
CCOc1cccc2c1Oc1nc(-c3ccccc3)nc(SCC(N)=O)c1C2,6%
CCOC(=O)c1sc(NC(=O)c2ccc(Cl)cc2)nc1C,1%
O=C1NC(c2ccccc2)C(C(=O)c2cccs2)C(O)(C(F)(F)F)N1 (stereo not drawn),-4%
CCOC(=O)c1nn(-c2ccc(Cl)cc2)c(=O)c2c(NC(=O)Cc3ccc([N+](=O)[O-])cc3)scc12,1%
N#Cc1ccc(-c2csc(NC(=O)c3ccc(-c4ccccc4)cc3)n2)cc1,3%
Cc1cc(Cl)cc2sc(N(Cc3ccccn3)C(=O)C3CC3)nc12,-4%

Single values from the list:
Mtb H37Rv with CC(=O)Nc1ccc(NC(=O)Cc2csc(NS(=O)(=O)c3ccccc3)n2)cc1 reads -13%
Mtb H37Rv with Cc1sc2ncnc(NCc3ccc4c(c3)OCO4)c2c1C reads -2%
Mtb H37Rv with N#Cc1c(/N=C/c2ccc(O)cc2O)sc2c1C1CCN2CC1 reads 4%
Mtb H37Rv with Cc1ccc(N2C(=O)CCC2=O)cc1C reads 1%
Mtb H37Rv with CN1CCc2c(sc(NC(=O)COc3ccc(Cl)cc3)c2C(N)=O)C1 reads 3%

(listing goes on)
canonical_smiles,Mtb H37Rv
CC1Cc2nc(SCC(=O)NC3CCCCC3)n(Cc3ccccc3)c(=O)c2S1 (stereo not drawn),-6%
CC(C)CCSc1nc2c(c(=O)[nH]1)C(c1ccncc1)C1=C(CC(C)(C)CC1=O)N2 (stereo not drawn),-6%
COc1ccc(OC)c2[nH]c(=O)c(CCNC(=O)CC(C)C)cc12,6%
CSc1cccc(NC(=O)CN2N=NC3C(=O)N(c4cccc(Cl)c4)C(=O)C32)c1 (stereo not drawn),9%
Cc1cccc2c(C(=O)O)cc(-c3ccncc3)nc12,-4%
O=C(/C=C/c1ccc([N+](=O)[O-])s1)Nc1nnc(C2COc3ccccc3O2)o1 (stereo not drawn),-8%
O=C1CC(NS(=O)(=O)c2cccnc2)CN1c1cccc(F)c1 (stereo not drawn),5%
COc1ccc(CNC(=O)C(=O)NCCC2CCCCN2S(=O)(=O)c2ccc(F)cc2)cc1 (stereo not drawn),8%
CC(=O)Nc1nc(SCC(=O)N2CCCCCC2)[nH]c(=O)c1NC(=O)c1cccs1,-6%
Cc1nnc(NC(=O)CSc2nnc(CNC(=O)c3ccc(C(C)(C)C)cc3)n2-c2ccc(F)cc2)s1,3%
Cc1nnc(SCCn2c(N3CCN(C(=O)c4ccco4)CC3)nc3c2c(=O)n(C)c(=O)n3C)s1,-13%
O=C(/C=C\c1ccccc1)Nc1c(C(=O)Nc2ccccc2F)oc2ccccc12,60%
Cc1cc2nnc(SCC(=O)Nc3ccccc3)n2c2ccccc12,0%
CC(=O)N1CCc2c(sc(NC(=O)c3cc(-c4ccccc4)nc4ccccc34)c2C(N)=O)C1,72%
CC1=C(C(=O)Nc2ccccc2)C(c2cccc3ccccc23)NC(=O)N1 (stereo not drawn),1%
CC(=O)Nc1nnc(C2COc3ccccc3O2)o1 (stereo not drawn),5%
CCOc1cccc2sc(NC(=O)c3ccc(Br)s3)nc12,22%
CC(Sc1nncn1C)C(=O)Nc1nnc(C(C)C)s1 (stereo not drawn),-6%
O=c1oc2ccccc2c(O)c1/C=N/c1ncccn1,-7%

This is a subset; count on the stated rates, not on these rows.
